# MT1-MMP act inh: MT1-MMP (human) activation inhibition; P50281; HT1080 RFP-PRO-GFP cells, GFP/RFP ratio fluorescence, overnight; percent of plate control window, DMSO zero; GFP/RFP ratio change, % at 20 µM; 0.061% of 360,000 active; AID 651647;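 active means GFP/RFP ratio change of at least 30% with cell ATP level not reduced by more than half and red fluorescence within 50% of control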; further: strong numbers were not always called active
#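 Test system: HT1080 RFP-PRO-GFP cells; Benchmarks: DMSO and RFP-L50D-GFP cell wells; Timing: cells overnight before dosing, compound overnight, 37 °C, 5% CO2; Compound: one 20 µM compound dose with 1% DMSO; Read-out: GFP/RFP fluorescence ratio.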
# eIF4H inh: inhibitors of RNA binding by human eIF4H | 0.94% of 290,000 active | inhibition, % at 35 µM | eIF4H fluorescence polarization binding assay;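 active means 50% or more with normal probe brightness, or confirmed in later tests; inconclusive means above 50% with abnormal brightness, or retests that disagree; inactive means below 50% or failed in later tests; about a fifth of its hits are not listed in these tables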;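 further: calls also rest on retests at 20 µM and on dose response follow-up; 0% = protein and probe with vehicle and 100% = probe without protein; strong numbers were not always called active; many hits fall short of the cut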
# Yeast UUG start: yeast start codon fidelity modulation. S. cerevisiae UUG-firefly luciferase reporter, luminescence/redox ratio. activity score, % at 18.7 µM. 0.13% of 350,000 active. AID 602363;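 active means replicate mean at a twofold rise or more, about +100% in these data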;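 further: firefly luciferase made from a UUG start codon reports start codon fidelity; reporter light over untreated wells divided by growth signal over untreated wells; some hits fall short of that in this replicate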
# Rce1 inhib: inhibitors of yeast Ras-converting enzyme | calls only | Q03530 | yeast membranes, quenched prenylated peptide cleavage fluorescence | 0.27% of 290,000 active;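 active means fall in fluorescence gain of 50% or more versus controls, with final raw signal at or below 3038400; inconclusive means same 50% fall but final raw signal above 3038400; inactive means fall in fluorescence gain under 50%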;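 further: plate controls were neutral control wells for no effect and wells lacking membranes for full effect; tested at 10 µM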
# Target sequence (Q03530 whole entry, looked up): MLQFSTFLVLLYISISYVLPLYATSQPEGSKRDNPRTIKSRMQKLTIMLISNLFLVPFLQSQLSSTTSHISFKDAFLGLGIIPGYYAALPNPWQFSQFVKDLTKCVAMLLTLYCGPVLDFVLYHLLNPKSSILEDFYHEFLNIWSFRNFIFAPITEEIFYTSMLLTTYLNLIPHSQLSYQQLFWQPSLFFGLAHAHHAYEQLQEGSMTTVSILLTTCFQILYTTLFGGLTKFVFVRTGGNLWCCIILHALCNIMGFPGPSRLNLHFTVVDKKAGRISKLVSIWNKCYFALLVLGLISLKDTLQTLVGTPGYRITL
# CSC inhib: cancer stem cell inhibition; cancer stem cell-like cells viability, luminescence; inhibition, % at 7.5 µM; 1.1% of 300,000 active;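 active means mean at 75% or more and at least half the replicates too; inconclusive means mean and replicates disagree; tested in HMLE shEcad cells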;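 further: 0% = median of negative and 100% = median of positive control wells; the first replicate is given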
# Env fusion inh: inhibitors of HIV Env-mediated cell fusion; inhibition, % at 12.3 µM; HeLa-JRFL Env/CEM21 cell fusion, luciferase; AID 651610; 1.1% of 360,000 active;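 active means mean replicate inhibition score of at least 50 and every replicate individually at or above 50; inconclusive means only one of the two criteria met; inactive means mean below 50 and not all replicates reaching 50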;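 further: 0% = plate neutral controls and 100% = maraviroc near 300 nM; one replicate is shown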
# PABP polyA inh: blocks human PABP binding to poly(A) RNA; P11940; fluorescence polarization; inhibition, % at 35 µM; 1% of 290,000 active; AID 2014;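 active means 50% or more with normal probe brightness, or confirmed in later tests; inconclusive means above 50% with abnormal brightness, or retests that disagree; inactive means below 50% or failed in later tests; about a fifth of its hits are not listed in these tables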;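 further: calls also rest on retests at 20 µM and on dose response follow-up; controls were probe without protein and protein plus probe with vehicle; some compounds called inactive have numbers as strong as hits; many hits fall short of the cut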
# MT1-MMP act inh RFP: further read-out of MT1-MMP act inh, marked with its call; RFP signal change, %; measured here: RFP expression control read;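 0 = vehicle wells; hits needed this value within 50% of zero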
# The depositor's hits bear a star; i = inactive; ? = inconclusive; nt = no result given.
SMILES,MT1-MMP act inh,MT1-MMP act inh RFP,eIF4H inh,Yeast UUG start,Rce1 inhib,CSC inhib,Env fusion inh,PABP polyA inh
CC1(C(=O)NS(=O)(=O)C2CC2)CCN(C(=O)CSc2ccccc2)C1 (centres undefined),-2,1,nt,-11,nt,nt,-32,nt
C/C(=N\OCC(=O)N/N=C/c1ccccc1)c1cccs1,-3,-3,6,-11,i,-14,-11,-7
CC1=NN(c2cccc(F)c2)C(=O)/C1=C/c1ccc(N(C)C)cc1,4,-1,1,-4,i,1,-2,9
Cc1ccc(S(=O)(=O)NCc2ccccc2)cc1C(=O)NCC1CCCO1 (centres undefined),-3,0,nt,nt,i,-13,nt,nt
Cc1ccc(Nc2nnc(SC(C)C(=O)NCC3CCCO3)s2)cc1 (centres undefined),-2,-2,nt,-23,nt,-8,0,nt
Cc1ccc2nc(SCC(=O)Nc3c(C)n(C)n(-c4ccccc4)c3=O)[nH]c2c1,8,3,4,-20,i,-6,nt,8
Cc1ccc(NC(=O)CSc2nc3sc(C)cc3c(=O)n2C)cc1,5,-9,-4,-15,i,-12,24,-2
CCN(CC)CCSc1nc(O)c(-c2ccccc2)c(=O)[nH]1,5,5,-6,-7,i,-14,-27,3
COc1ccccc1C(CC(=O)O)c1ccc2c(c1)OCO2 (centres undefined),3,0,2,-3,i,0,-9,-4
O=C(/C=C/Nc1ccccc1Oc1ccccc1)c1ccco1,-4,-5,-3,-11,i,7,-4,3
Cc1cc(C(=O)NCc2ccco2)cs1,3,2,5,16,i,-9,nt,10
O=C(CCCn1c(=O)oc2ccccc21)NNC(=O)COc1ccc(F)cc1,0,5,nt,-29,nt,-13,-17,nt
CCOC(=O)C1CCN(C(=O)CCc2ccc(S(=O)(=O)NC(C)C)cc2)CC1,3,1,-3,-19,i,-16,10,1
COCCCn1cnc2c(c1=O)c1nc3ccccc3nc1n2-c1ccc(C)cc1,1,5,-9,-12,i,-6,nt,2
COc1cc2c(cc1OC)C(COc1ccccc1OC)N(C(=O)c1ccco1)CC2 (centres undefined),2,-3,6,2,i,-13,9,8
CC(C)c1ccccc1OCC(O)CN(CC(O)COc1cccc2ccccc12)C(C)C (centres undefined),-5,-4,-8,12,nt,102*,12,6
C=C(C)CN1CCN(c2ccc(N3C(=O)CCCC3=O)cc2[N+](=O)[O-])CC1,3,8,4,-20,i,-3,8,-4
COCC(C)NC(=O)c1cc(OC)cc(OC)c1 (centres undefined),4,8,1,nt,i,-7,0,-6
C=CCn1c(Cc2cccs2)nnc1SCC(=O)c1ccc(F)cc1,4,-4,-4,-5,i,49,19,-2
Cc1ccc(S(=O)(=O)N2CCCN(S(=O)(=O)C3CCS(=O)(=O)C3)CC2)cc1 (centres undefined),-3,3,-14,3,i,25,-66,0
COc1ccc(CC(=O)Nc2ccc(N(C)C)c3ccccc23)cc1,2,-2,2,-6,i,-13,10,-8
COC(=O)C1CCN(C(=O)Nc2ccc(OC)cc2)CC1,-2,-2,-2,-4,i,-10,-4,9
Cc1ccc(S(=O)(=O)N/N=C\c2ccc3c(c2)OCO3)cc1C,-3,1,-4,12,i,16,-3,-10
Cc1ccc(NC(=O)c2ncn(CCCNCC3CCCCC3)n2)cc1C,0,-1,nt,-23,nt,nt,-23,nt
O=C(N/C(=C\c1ccccc1)C(=O)N1CCOCC1)c1ccc(Br)o1,2,2,-9,-2,nt,-1,5,6
Cc1ccsc1C(=O)OCC(=O)Nc1cccc(S(=O)(=O)NC2=NCCCCC2)c1,0,-1,1,2,i,-12,2,12
Cc1ccnc(N2CCN(C(=O)CSc3nc4ccccc4nc3N3CCCCC3)CC2)c1,-7,-7,-4,3,i,-1,nt,0
N#Cc1c(N)n(C2CCCCC2)c2nc3ccccc3nc12,-9,-5,-7,-17,i,11,nt,-11
CC(C)c1ccccc1NC(=S)NC1CCN(Cc2ccccc2)CC1,-2,1,0,nt,i,-5,-8,13
CC(C)(CO)NC(=O)c1ccc2c(c1)C(=O)c1ccccc1-2,3,-1,1,-3,i,3,-1,10
CC(C)(C)NC(=O)CN(C(=O)C(=O)Nc1ccc2c(c1)OCCO2)C(C)(C)C,-2,5,-5,-7,i,-10,4,-2
Cc1cc2c(NS(=O)(=O)c3ccc(F)cc3)cccc2nn1,3,-7,1,-9,i,17,-7,10
Cc1c(CN2CCN(C)C(CCO)C2)[nH]c2c(Cl)cccc12 (centres undefined),-3,4,4,-8,i,8,-14,0
N#Cc1c(SCC(=O)Nc2ccc(C(F)(F)F)cc2)sc2c(O)cc(=O)[nH]c12,2,5,16,-14,i,-9,1,8
O=C(CC(=O)NC1CCCCC1)N/N=C/c1ccccc1[N+](=O)[O-],0,0,-1,-19,i,nt,-9,15
C=CCSc1nnnn1-c1ccc(OC)cc1,0,-3,-7,-20,i,-3,-180,-8
Cc1ccccc1C(=O)Nc1cccc(C(=O)N/N=C/c2ccc3c(c2)OCO3)c1,1,-3,6,1,nt,24,0,11
O=C(COC(=O)CC(c1ccccc1)c1ccccc1)NCc1ccc(Cl)cc1,0,-9,-1,-10,i,-2,nt,-1
C=CCN(Cc1cn(C)nc1-c1cccc(Cl)c1)C1CCS(=O)(=O)C1 (centres undefined),2,1,11,-4,i,12,5,-6
O=C(c1cccs1)N1CCCC(N2CCN(c3cccc(C(F)(F)F)c3)CC2)C1 (centres undefined),0,-8,3,-4,i,23,10,13
CC(C)Nc1nc(N)c(C(=O)C23CC4CC(CC(C4)C2)C3)s1,-1,0,-4,-6,i,55,3,-3
COc1ccc(Cl)cc1C(=O)NNC(=O)COC(=O)CCN=C1NS(=O)(=O)c2ccccc21,-3,1,nt,-7,i,-6,-22,nt
CCOC(=O)C1CCC(CNCc2ccc(Cl)cc2)CC1 (centres undefined),-1,-1,-7,nt,i,nt,nt,-7
Cc1c(NC(=O)c2ccc(NC(=O)C3CC3)cc2)cccc1C(=O)O,-1,2,-6,-38,i,-9,-7,0
CCCCn1nnc(NC(=O)CCC)n1,5,4,6,-4,i,-8,6,-5
O=C(COc1ccc(S(=O)(=O)N2CCCC2)cc1Cl)NCc1ccco1,11,2,7,5,i,5,nt,9
CCOC(=O)c1ccc(NC(=O)c2ccc(CN3CCc4ccccc4C3)cc2)cc1,4,-32,-2,-2,i,6,58*,0
O=C1NC(=S)N/C1=C/C=C/c1ccccc1,1,2,17,-18,i,nt,-2,-1

# 7 entries out of the list, ordered by heavy-atom count, highest first:
SMILES,MT1-MMP act inh,MT1-MMP act inh RFP,eIF4H inh,Yeast UUG start,Rce1 inhib,CSC inhib,Env fusion inh,PABP polyA inh
COc1ccc(Cl)cc1C(=O)NNC(=O)COC(=O)CCN=C1NS(=O)(=O)c2ccccc21,-3,1,nt,-7,i,-6,-22,nt
CCOC(=O)c1ccc(NC(=O)c2ccc(CN3CCc4ccccc4C3)cc2)cc1,4,-32,-2,-2,i,6,58*,0
Cc1ccccc1C(=O)Nc1cccc(C(=O)N/N=C/c2ccc3c(c2)OCO3)c1,1,-3,6,1,nt,24,0,11
O=C(COC(=O)CC(c1ccccc1)c1ccccc1)NCc1ccc(Cl)cc1,0,-9,-1,-10,i,-2,nt,-1
C=CCN(Cc1cn(C)nc1-c1cccc(Cl)c1)C1CCS(=O)(=O)C1 (centres undefined),2,1,11,-4,i,12,5,-6
O=C1NC(=S)N/C1=C/C=C/c1ccccc1,1,2,17,-18,i,nt,-2,-1
CCCCn1nnc(NC(=O)CCC)n1,5,4,6,-4,i,-8,6,-5

# (further entries)
SMILES,MT1-MMP act inh,MT1-MMP act inh RFP,eIF4H inh,Yeast UUG start,Rce1 inhib,CSC inhib,Env fusion inh,PABP polyA inh
O=C(NCCN1CCOCC1)Nc1ccc(Cl)cc1,3,-2,-1,-18,i,-14,-2,0
COc1ccc(CCNC(=O)/C(C#N)=C2\N=C(NC(=O)c3ccco3)c3ccccc32)cc1,2,-2,4,-5,i,8,6,0
Cc1ccc(N2CCN(S(=O)(=O)c3ccc4oc(=O)ccc4c3)CC2)cc1Cl,2,-3,-1,-6,i,nt,5,-13
O=C(CSc1nc2ccccc2c(=O)n1-c1ccc(F)cc1)Nc1cc(S(=O)(=O)N2CCOCC2)ccc1Cl,1,-2,-8,nt,i,5,-500,-10
O=c1c2c(nc3nc(NCc4cccc5ccccc45)[nH]n13)CCC2,2,3,1,-12,i,-9,-5,6
COc1ccc(CC(=O)NNC(=O)c2ccc(Br)o2)cc1,-1,0,3,-15,i,nt,8,2
Cc1ccc2[nH]c(=O)c(CN(CCCO)S(=O)(=O)c3cccc4nsnc34)cc2c1,0,2,3,-6,i,-7,nt,7
COC(=O)c1ccc(C)c(NC(=O)CCNC(=O)c2ccc([N+](=O)[O-])cc2)c1,3,2,-2,-15,i,-10,nt,10
CCOc1ccccc1NC(=O)COC(=O)c1ccccc1SCC(=O)N1CCCC1,2,1,nt,-8,i,-11,7,nt
CC(=O)Nc1ccc(-c2csc(NNC(=O)c3ccccc3)n2)cc1,-4,3,-7,nt,i,5,-1,-13
COc1ccccc1-c1nc(C#N)c(N2CCN(C(=O)c3ccco3)CC2)o1,1,3,-6,-14,i,-3,-14,-12
Cc1nc2ccc(NC(=O)c3ccc([N+](=O)[O-])cc3[N+](=O)[O-])cc2s1,2,0,2,nt,i,6,-9,-24
Cc1ccc(SCCN2CCC(C(C)(C)C)CCC2=O)cc1 (centres undefined),4,0,6,3,i,8,-16,47
COc1ccc(Nc2c3c(nc4ccccc24)CCC3)cc1,-8,-9,-10,2,i,27,35,-6
COc1ccc(CCC(C)NC2CCCCCCC2)cc1 (centres undefined),-1,2,0,7,i,19,-1,-2
O=C(c1cccc(NS(=O)(=O)c2ccccc2)c1)N1CCCC1,-1,0,-6,-11,i,nt,1,-17
CN1CCN(CCCCOc2ccccc2C=O)CC1,5,5,17,7,i,18,-8,17
COc1ccc(C=NCCc2ccc(OC)c(OC)c2)cc1OC,-2,4,nt,-15,nt,nt,-4,nt
O=C(COc1ccccc1F)Nc1ccc(S(=O)(=O)Nc2nccs2)cc1,-1,0,4,-6,i,0,-6,12
Cc1ccc(CN2CCC(=O)N2)cc1,1,0,7,-16,i,-8,6,1
Cn1c(=O)c2c(ncn2Cc2ccccc2)n(C)c1=O,2,-5,3,-8,i,nt,-16,-12
COc1cc(/C=N/NC(=O)c2ccccn2)ccc1OC(=O)c1ccc(Br)cc1,-2,-1,3,-14,i,-10,-20,2
O=S(=O)(c1cccc(NC(=S)N2CCN(c3ccccc3F)CC2)c1)C(F)F,0,0,-1,nt,nt,7,27,4
CN(C(=O)c1ccc2c(=O)n3c(nc2c1)CCCCC3)c1cccc(Cl)c1,0,-4,-13,-9,i,-17,-5,-5
O=C(CCCOc1ccccc1)OCn1nnc2ccccc2c1=O,0,3,31,nt,nt,3,0,4
C/C(=N\NC(=O)C1CC1c1ccccc1)c1ccc(C)s1 (centres undefined),2,-3,-12,-24,i,-11,?,-3
CC(C)CC(COCc1cccc(C(F)(F)F)c1)N1CCN(C(=O)c2cccc(C(F)(F)F)c2)CCC1=O (centres undefined),-2,-14,-1,0,i,7,67*,5
CC(CCc1ccccc1)NC(=O)c1cccnc1 (centres undefined),-2,1,1,-17,i,-11,-24,-6
Cc1nnsc1NC(=O)OCc1ccc(Cl)cc1Cl,-1,-18,-9,nt,i,2,nt,-13
Cn1cc(CC(=O)NCCCN2CCCC2)c2ccccc21,6,9,-1,nt,i,-9,-52,-5
O=C(CCc1nnc2ccc(NCc3ccco3)nn12)Nc1ccccc1F,-2,6,33,-12,i,9,-10,22
Cc1ccc(C)c2[nH]c(=O)c(CCNC(=O)c3ccc(S(=O)(=O)N(C)C)cc3)cc12,-3,-2,-11,6,i,-15,21,0

# Assay outcomes from PubChem.

# This is a subset; count on the stated rates, not on these rows.
